Assay outcomes deposited in PubChem BioAssay by several laboratories.
HNF4A DNA FP: change in binding of human HNF4 alpha to DNA. HNF4a-FITC DNA binding, fluorescence polarization, 1 h. 0.3% of 360,000 active. activity change, % at 10 µM; in the data active means activity change above about 30%, passing the limit was not always enough;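 further: controls were the assay level and a saturating level of protein; the project sought stronger binding though the title names inhibitors; some compounds called inactive have numbers as strong as hits; positive values seem to mean higher polarization but the record does not say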
Target sequence (P41235 whole entry, looked up): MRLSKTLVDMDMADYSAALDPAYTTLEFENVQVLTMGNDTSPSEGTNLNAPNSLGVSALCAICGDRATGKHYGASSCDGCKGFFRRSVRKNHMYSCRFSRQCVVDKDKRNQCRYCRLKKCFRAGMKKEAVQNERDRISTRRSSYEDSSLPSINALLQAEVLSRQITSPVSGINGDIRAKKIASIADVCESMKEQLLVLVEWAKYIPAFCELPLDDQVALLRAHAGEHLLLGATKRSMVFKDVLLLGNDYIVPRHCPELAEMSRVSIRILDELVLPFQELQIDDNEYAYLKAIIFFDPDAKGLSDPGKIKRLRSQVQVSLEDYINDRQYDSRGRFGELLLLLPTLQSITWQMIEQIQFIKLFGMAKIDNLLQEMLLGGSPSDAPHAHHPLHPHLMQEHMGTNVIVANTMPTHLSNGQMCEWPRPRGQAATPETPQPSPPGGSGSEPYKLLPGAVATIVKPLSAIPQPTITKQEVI
E coli growth: inhibitors of Escherichia coli growth. OD600, 23 h; active compounds read low. OD600 absorbance (concentration not given with the values). 0.21% of 330,000 active. AID 1053175;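 active means OD600 absorbance below the run mean of sample wells minus 3.6 SD, in any replicate, cut at about 0.56 in these data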;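 further: stock transfer was 300 nL into about 60 µL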
A1 inh: inhibitors of the anti-apoptotic protein A1, read as caspase activation | caspase activation, % (test concentration not listed) | MEF A1-2A-BIM cells, Caspase-Glo 3/7 luminescence, 3 h; percent of clofoctol response, vehicle zero | 0.066% of 330,000 active | AID 2462;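 active means over half of replicate activation scores above 10%, or exactly half above 10 with the replicate mean above 10; inconclusive means replicate mean below 10 yet half the replicates above 10; inactive means over half of replicates below 10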;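 further: wells of about 30 µL received 50 nL stock; many hits fall short of the cut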
Vif A3G: HIV-1 Vif–A3G interaction blockers – biochemical, TR-FRET, GST-Vif 1-94, biotin-A3G peptide, dose response retest, primary screen (AID 1117319). TR-FRET GST-Vif / biotin-A3G peptide binding; higher % means a stronger effect; test concentration not given here; strong numbers were not always called active. inhibition, %, or IC50 in µM where a hit was titrated. 0.57% of 260,000 active;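 active means above the screen mean plus three standard deviations and confirmed in dose response; inconclusive means results disagree or hit not tested in dose response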;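 further: Vif residues 1-94 fused to GST binding biotinylated APOBEC3G peptide 110-148; 0% = full assay without inhibitor and 100% = GST in place of GST-Vif; retest series ran down from 100 µM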
LANA-H2B inh: blocks KSHV LANA binding to histone H2A/H2B. Q9QR71. cell-free LANA-H2A/H2B peptide, fluorescence polarization. inhibition, % (concentration not given with the values). 0.6% of 320,000 active. AID 2629; in the data active means inhibition mostly above about 10%, no sharp cut-off; inactive means mostly below about 6.7%;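 further: stock transfer was 7.5 nL into about 10 µL; 0% = median of vehicle wells and 100% = median of positive control wells; one replicate is shown; the record names a cut of 25% in any replicate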
UCH37 inh: blocks the human deubiquitinase UCH37; inhibition, % (concentration not given with the values); 0.33% of 330,000 active; Q9Y5K5; purified proteasome/UCH37, Ub-AMC cleavage fluorescence;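 active means mean of two replicates above 20%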;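 further: 0% = compound-free wells with enzyme and 100% = wells lacking proteasome; stock transfer was 100 nL into about 20 µL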
Target sequence (Q9Y5K5 whole entry, looked up): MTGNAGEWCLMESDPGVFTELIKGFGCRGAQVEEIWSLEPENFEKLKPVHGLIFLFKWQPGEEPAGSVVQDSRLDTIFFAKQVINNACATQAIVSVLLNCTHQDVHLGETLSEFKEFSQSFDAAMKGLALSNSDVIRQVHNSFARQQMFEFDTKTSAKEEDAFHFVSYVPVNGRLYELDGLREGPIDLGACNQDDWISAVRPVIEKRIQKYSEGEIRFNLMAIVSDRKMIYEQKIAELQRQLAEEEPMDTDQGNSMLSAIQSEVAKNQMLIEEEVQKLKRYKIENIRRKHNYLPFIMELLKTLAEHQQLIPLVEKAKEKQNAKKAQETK
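system = Proteasome-associated human UCH37 deubiquitinase | amount = 0.15 nM proteasome as dispensed | medium = pH 7.4 Tris-HCl (50 mM) with ovalbumin, ATP-MgCl2, DTT | incubation = 30 min preincubation with enzyme, 25 min cleavage at room temperature | detection = AMC fluorescence 355/460 nm | read-out basis = percent inhibition | controls = no-proteasome and no-compound wells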
B2AR ag: activates human beta-2 adrenergic receptor causing internalization | P07550 | Am2.2-beta2AR cells, FAP receptor internalization, flow cytometry; reference of the scale not given here | response, % (concentration not given with the values) | 0.43% of 340,000 active;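 active means response above a set limit, near 3 SD of response in nonfluorescent compounds, cut at about 42% in these data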;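 further: stock transfer was 100 nL into about 11 µL; a reference agonist was the positive control; negative values mostly stem from fluorescent compounds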
The depositor's hits bear a star; ? = inconclusive; · = no result given.

SMILES	HNF4A DNA FP	E coli growth	A1 inh	Vif A3G	LANA-H2B inh	UCH37 inh	B2AR ag
Cc1ccc(CC(=O)Nc2nc3c(s2)CCCC3)cc1	-3.6	0.68	-0.7	2%	-1.1	3.6	1
CC(O)[C@H]1CNCCN1CCc1cccc2ccccc12 (stereo partly drawn)	-0.8	·	0.3	·	-3.4	0.9	-2
CC1(C)CC(=O)C2=C(C1)c1c(ccc3ncccc13)NC2c1cccs1 (stereo not drawn)	1.6	0.69	0.7	-8%	-1.4	-27	13
COCCn1c(C)cc(C(=O)CSc2ccc(NC(C)=O)cc2)c1C	-2.4	0.73	-0.2	29%	3.0	3.9	-4
O=C(NCCN1C(=O)S/C(=C\c2ccccc2F)C1=O)C1CC(=O)N(Cc2ccccc2)C1 (stereo not drawn)	3.4	0.66	0.0	-2%	-2.5	6.2	8
O=C(NCc1cccnc1)C(=O)Nc1cc2c3c(c1)CC(=O)N3CCC2	0.7	0.72	-2.1	-6%	-1.5	1.7	-5
O=C(O)C1=C(C(=O)O)C2C=CC1C2	-3.1	0.69	·	16%	·	0.6	-3
Cc1ccc(OCC(=O)NC(=S)Nc2ccc(Br)cn2)cc1	-1.6	0.69	-0.4	4%	2.4	6.3	-5
CCn1c(CNc2ccc(F)cc2)nnc1SCC(=O)Nc1ccc(OC)cc1OC	0.5	0.67	1.3	?	-2.0	2.1	2
COc1ccc(CC(=O)NC(C)c2nnc(SCCC(=O)Nc3ccccc3)n2C)cc1 (stereo not drawn)	-1.9	0.7	0.1	·	0.9	2.6	-1
O=C(CNC(=O)c1ccc(N2C(=O)c3ccccc3C2=O)cc1)OCC(=O)c1ccc(Cl)cc1	6.5	0.71	0.0	-10%	-5.4	2.1	-6
CC(C)(C)NC(=O)CN(C(=O)CCC(=O)Nc1nccs1)c1cccc(C(F)(F)F)c1	1.7	0.67	0.6	·	-2.0	4.1	-2
CCc1ccc(-c2nc(NC(=O)c3ccc(OCC(=O)Nc4ccc(F)cc4)c(OC)c3)sc2C)cc1	1.1	0.73	1.0	·	0.3	-72	-2
CCc1cc2c(=O)c(-c3nc4ccccc4n3C)c(COCC(=O)O)oc2cc1O	-1.3	0.69	0.4	?	1.6	-21	-4
O=C(CSc1ncccn1)NC(=O)Nc1ccc2c(c1)OCCO2	2.5	0.56	-1.7	·	0.9	0.5	0
COc1ccc(S(=O)(=O)N2CCNC(=O)CC2)cc1	1.1	0.73	-1.4	·	4.8	2.9	6
NC1=NC[C@H](c2ccccc2)N1CCCCC1CCCCC1	-0.9	·	1.1	-6%	1.2	4.8	3
O=C(O)c1ccc(N2CCCS2(=O)=O)cc1	0.5	0.66	0.2	·	3.4	2.3	2
CC(C)c1ccc(NC(=O)C2CCN(S(=O)(=O)c3ccc4c(c3)NC(=O)CO4)CC2)cc1	6.2	0.7	-1.6	11%	0.8	3.7	13
COc1ccc(CN(CCCN2CCOCC2)C(=O)Nc2ccccc2)cc1OC	1.1	0.67	0.7	9%	2.8	2.7	-2
CCN(CC)C(=O)COc1coc(CN2CCN(c3ccc(F)cc3)CC2)cc1=O	2.9	0.69	-0.6	·	-3.8	3.8	-5
COc1ccc(OCCNc2c([N+](=O)[O-])c(=O)oc3ccccc23)cc1	-2.3	0.69	-0.1	-5%	1.0	4.4	-3
Cc1cc2ncn(N)c2cc1C	2.2	0.67	-0.1	-3%	-1.7	1.4	8
Cn1c(SCC(=O)N/N=C/C=C/c2ccccc2[N+](=O)[O-])nc2ccccc21	1.2	·	-0.4	21%	0.8	·	-6
CN(c1ccc(C(=O)N2CCCCCC2)cc1)S(=O)(=O)c1ccccc1	-0.1	0.72	0.5	-7%	-0.3	-3.0	-1

An excerpt from above, reduced to LANA-H2B inh:
Molecule	LANA-H2B inh
CC(C)c1ccc(NC(=O)C2CCN(S(=O)(=O)c3ccc4c(c3)NC(=O)CO4)CC2)cc1	0.8
COc1ccc(CN(CCCN2CCOCC2)C(=O)Nc2ccccc2)cc1OC	2.8
CCN(CC)C(=O)COc1coc(CN2CCN(c3ccc(F)cc3)CC2)cc1=O	-3.8
COc1ccc(OCCNc2c([N+](=O)[O-])c(=O)oc3ccccc23)cc1	1.0
Cc1cc2ncn(N)c2cc1C	-1.7
Cn1c(SCC(=O)N/N=C/C=C/c2ccccc2[N+](=O)[O-])nc2ccccc21	0.8

Remaining list, next part.
SMILES	HNF4A DNA FP	E coli growth	A1 inh	Vif A3G	LANA-H2B inh	UCH37 inh	B2AR ag
COc1ccccc1/C=N/NC(=O)C(C)Cn1cnc2ccccc21 (stereo not drawn)	2.9	·	0.7	·	3.0	·	-3
NC(=O)[C@@H]1CCCN1Cc1nc(Cc2ccccc2Cl)no1	-0.1	0.67	1.2	-3%	8.1	5.7	0
CN1CCN(CC(=O)NC2CCCCC2)CC1	2.1	0.64	-0.1	2%	1.0	-0.6	-2
COc1ccc(-c2nc3cnccn3c2NC(C)(C)CC(C)(C)C)cc1O	0.8	0.7	0.1	0%	1.4	-102	7
O=c1c(C(c2ccccc2)c2c(O)nc3n(c2=O)CCCS3)c(O)nc2n1CCCS2	1.6	0.73	?	-12%	6.6	3.2	-1
O=C(CCc1nnc(CCCCc2ccccc2)o1)NCCc1cccnc1	4.3	0.66	0.0	-1%	1.2	2.2	-10
CCOC(=O)c1[nH]c2ccc(F)cc2c1N=C(C)N(CC)CC	3.1	0.77	0.2	-8%	1.6	3.3	4
COc1ccccc1NC(=O)C1=C(C)N(c2ccccc2)C(=S)NC1c1cccc(C(F)(F)F)c1 (stereo not drawn)	1.3	0.74	?	?	2.0	2.2	8
O=C(NCCCNC(=O)c1ccc(Cl)cc1Cl)c1ccco1	-0.4	0.69	-0.3	·	6.9	3.3	-9
O=C(Cc1ccccc1)NCC1COc2ccccc2O1 (stereo not drawn)	-0.4	0.7	-0.5	·	1.2	6.0	-6
Cc1ccc(S(=O)(=O)NCCC(=O)NCC(c2cccs2)N2CCOCC2)cc1 (stereo not drawn)	1.5	0.63	-0.2	-1%	-1.5	3.6	-3
Cc1ccccc1CSc1nnc(-c2ccco2)n1Cc1ccco1	2.7	0.7	0.1	13%	-2.5	-0.3	-5
CC(NC(=O)c1sc2cc([N+](=O)[O-])ccc2c1Cl)C(C)(C)C (stereo not drawn)	-2.4	0.68	1.2	-6%	3.0	3.7	5
Cc1ccc(S(=O)(=O)N2CCN(S(=O)(=O)N3CCC(C)CC3)CC2)cc1C	2.5	0.68	0.6	·	0.6	4.3	-4
COc1ccc(Br)cc1CN1CCN(Cc2c[nH]c3ccccc23)CC1	59*	0.67	0.6	4%	-1.8	5.1	25
COc1ccc(C(=O)Nc2ccc(C)c(S(=O)(=O)N3CCOCC3)c2)cc1S(=O)(=O)N1CCCC1	2.2	0.68	·	·	·	1.4	5
Cc1ccccc1CC(=O)Nc1cc(C(C)(C)C)on1	-0.7	0.68	0.7	·	5.2	1.0	1
CCOc1ccccc1Nc1cc2n(c(=O)n1)CCc1cc(OC)c(OC)cc1-2	6.8	·	0.5	·	-4.9	·	0
CCC(=O)Nc1ccc(C(=O)COC(=O)C(CCSC)NC(=O)COc2ccccc2)cc1 (stereo not drawn)	11	0.7	0.3	-1%	7.9	1.6	15
CSc1nsc(SCC(=O)NCc2ccc(C)cc2)n1	0.1	0.65	0.9	·	-1.8	2.1	-8
Cc1cccc(-n2c(CCn3nc(C)c([N+](=O)[O-])c3C)n[nH]c2=S)c1	-2.3	0.69	0.4	17%	1.3	4.0	6
COc1nc(C)ccc1-c1noc(-c2cccs2)n1	-3.2	0.69	-9.5	-10%	-1.1	0.0	-9
CCOC(=O)Nc1ccc2nc(N3CCCCCC3)sc2c1	-1.9	0.64	-5.6	?	-9.8	6.4	-8
CC(C)=NN1C(c2nonc2N)=NOC1(C)C	-0.8	0.66	-0.6	23%	0.2	0.2	-4
O=C(c1ccc2nc[nH]c2c1)N1CCN(c2cccc(C(F)(F)F)c2)CC1	-3.2	0.66	1.7	-4%	2.3	1.8	-11

Another view of part of the listing above:
Structure | HNF4A DNA FP | E coli growth | A1 inh | Vif A3G | LANA-H2B inh | UCH37 inh | B2AR ag
O=C(Cc1ccccc1)NCC1COc2ccccc2O1 (stereo not drawn) | -0.4 | 0.7 | -0.5 | · | 1.2 | 6.0 | -6
Cc1ccc(S(=O)(=O)NCCC(=O)NCC(c2cccs2)N2CCOCC2)cc1 (stereo not drawn) | 1.5 | 0.63 | -0.2 | -1% | -1.5 | 3.6 | -3

(list continues)
SMILES	HNF4A DNA FP	E coli growth	A1 inh	Vif A3G	LANA-H2B inh	UCH37 inh	B2AR ag
C=CCN1C(=O)C(C)S/C1=N\S(=O)(=O)c1ccc(Cl)cc1 (stereo not drawn)	-1.1	·	0.7	17%	-0.8	·	4
CC1(C)CC(CC(=O)Nc2ccccc2[N+](=O)[O-])C(=O)O1 (stereo not drawn)	-4.2	0.7	1.0	-3%	0.2	6.6	-8
COC(=O)Cc1c(C)c2ccc(OCC(=O)N3CCOCC3)cc2oc1=O	2.0	0.67	-0.3	4%	-5.2	-166	4
CC(C)CN(C(=O)COC(=O)c1ccccc1SCC(=O)N1CCCC1)C1CCS(=O)(=O)C1 (stereo not drawn)	2.2	0.69	·	·	·	3.9	0
COc1cccc(CN2C(=O)[C@@H]3Cc4c([nH]c5ccccc45)C(C)(C)N3C2=O)c1	3.6	·	1.2	·	-1.1	1.2	22
COc1ccc(C(C(=O)NC2CCCCC2)N(C(=O)CCl)c2ccc(OC)cc2)cc1 (stereo not drawn)	1.3	0.7	1.0	·	0.3	-22	32
CCn1c(SCC(=O)Nc2ccc3[nH]c(=O)[nH]c3c2)nnc1-c1ccccc1	2.2	0.7	-0.1	4%	-4.0	2.9	-4
CCC1CCCCN1C(=O)CSc1nc(N)c(NC(=O)c2ccco2)c(=O)[nH]1 (stereo not drawn)	7.0	0.77	-0.6	2%	1.0	6.8	-1
CC(C)COc1ccc(C(=O)OCC(=O)NCc2cccs2)cc1	-2.6	0.72	-0.4	-6%	-4.5	5.8	-1
O=C(/C=C/c1ccc(Cl)cc1)NC(=S)Nc1ccc(NC(=O)c2ccco2)cc1	0.3	0.68	0.0	·	1.6	2.0	-15
Cn1nnnc1SCCNC(=O)C1CCC(=O)N(CCc2cccc(F)c2)C1 (stereo not drawn)	-1.5	0.69	-0.2	·	4.9	1.2	-3
COc1ccc(C=O)cc1CN1CCCN(Cc2ccccc2F)S1(=O)=O	-2.8	0.62	0.2	-7%	3.3	3.7	-3
Cc1ccc(C)c(CNc2ccc(S(=O)(=O)N3CCCCC3)cc2)c1	4.7	0.66	0.0	-7%	0.2	3.2	-3
CC(=O)/C(N=Nc1cccc(C(F)(F)F)c1)=C(\C)O	-3.6	0.71	0.7	0%	0.6	4.9	4
Cc1ccc(NC(=O)CCS(=O)(=O)c2cc3c(cc2Cl)NC(=O)CO3)cc1	-2.6	0.7	0.4	·	0.5	0.0	-7
CCn1nc(C(C)C(=O)O)c2ccccc2c1=O (stereo not drawn)	4.2	0.69	-0.6	4%	-2.7	2.4	0
CC1CN(C(=O)Cc2ccc(-c3ccccc3)cc2)CC(C)O1 (stereo not drawn)	-1.7	0.69	0.3	3%	-2.3	4.8	-15
CC1(C)Cc2c(sc(NC(=O)C3CC(Cl)=CCC3C(=O)O)c2C#N)CO1 (stereo not drawn)	-3.0	0.69	1.9	4%	-2.8	-1.3	-3
CC(C)C(C(=O)Nc1ccc(N2CCOCC2)cc1)N1C(=O)c2ccccc2C1=O (stereo not drawn)	1.4	0.7	0.7	7%	1.6	0.3	-1
CCOc1ccc(N2CC(C(=O)Nc3c(C)n(C)n(-c4ccccc4)c3=O)CC2=O)cc1 (stereo not drawn)	-3.0	0.71	0.4	27%	-5.1	1.8	-6
CCOc1cc(C(=O)N2CCN(C/C=C/c3ccccc3)CC2)cc(OCC)c1OCC	3.8	0.68	0.1	12%	-1.8	4.0	5
